Screening data from PubChem.
RGS16-Gao = regulators of human RGS16-Galphao interaction; O15492+P09471; bead-based flow cytometry RGS16-Galphao binding, fluorescence; actives lie on both sides; binding response (% of control), % at 10 µM; 220,000 compounds, 0.38% hits;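 active means below 25% or above 175%, edge rows of some plates excepted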;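 further: Galphao activated by GDP with aluminum fluoride before binding; 100% = wells without compound and 0% = beads without RGS; some results beyond the cut were filed as inactive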
PKD1 kinase inh = blocks activity of human protein kinase D1; Q15139; PKD1 kinase fluorescence polarization assay; inhibition, %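 (about 10 µM by stock and volumes)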; 200,000 compounds, 0.056% hits;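 active means inhibition of 50% or more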;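 further: controls were vehicle for no effect and a reference inhibitor for full effect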
Target sequence (Q15139 whole entry, looked up): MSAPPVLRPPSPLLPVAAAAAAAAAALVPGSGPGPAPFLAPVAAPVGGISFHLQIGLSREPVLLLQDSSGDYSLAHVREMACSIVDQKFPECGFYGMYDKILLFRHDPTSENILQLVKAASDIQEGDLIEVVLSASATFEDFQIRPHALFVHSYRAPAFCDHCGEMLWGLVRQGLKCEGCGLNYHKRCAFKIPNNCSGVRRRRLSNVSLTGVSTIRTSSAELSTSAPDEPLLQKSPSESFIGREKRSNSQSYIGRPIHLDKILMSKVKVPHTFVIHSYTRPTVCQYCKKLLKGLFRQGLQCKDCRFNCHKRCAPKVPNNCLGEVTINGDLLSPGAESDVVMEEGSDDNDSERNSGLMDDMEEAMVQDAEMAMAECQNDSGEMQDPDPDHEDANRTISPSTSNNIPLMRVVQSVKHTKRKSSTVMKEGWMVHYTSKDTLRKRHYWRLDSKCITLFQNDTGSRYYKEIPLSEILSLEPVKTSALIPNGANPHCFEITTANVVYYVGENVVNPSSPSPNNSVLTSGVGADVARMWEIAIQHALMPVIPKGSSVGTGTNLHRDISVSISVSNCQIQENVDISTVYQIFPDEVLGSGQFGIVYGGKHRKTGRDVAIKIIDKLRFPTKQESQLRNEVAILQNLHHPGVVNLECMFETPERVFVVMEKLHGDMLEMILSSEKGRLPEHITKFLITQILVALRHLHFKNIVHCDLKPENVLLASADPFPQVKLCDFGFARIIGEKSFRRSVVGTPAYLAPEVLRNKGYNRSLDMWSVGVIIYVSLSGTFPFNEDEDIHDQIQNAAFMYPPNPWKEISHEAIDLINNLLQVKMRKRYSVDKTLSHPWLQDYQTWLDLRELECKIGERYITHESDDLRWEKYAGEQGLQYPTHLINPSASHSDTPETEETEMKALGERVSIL
GALR2 agonist = GALR2 (human) receptor agonism | activation, %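 (tested at 5 µM)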 | O43603 | 140,000 compounds, 0.48% hits | GALR2-expressing cells, agonist activation read-out;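 active means above mean plus 3 SD of all compounds, about 5% in these data, not always enough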;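 further: 0% = vehicle buffer wells and 100% = reference agonist at full effect; tested in CHO reporter cells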
HSV augment = HSV replication enhancement; HSV replication augmentation in cells, fold increase; maximum fold increase; 220,000 compounds, 0.005% hits;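 active means peak rise of 1.5-fold or more in the series; tested in PC3 cells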;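 further: first round at 10 µM; read as green reporter fluorescence; hits show the peak of a series up to 25 µM; 1 = signal of infected wells without compound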
INS promoter inh = TRM-6 insulin promoter activity inhibition; TRM-6 cells (human fetal islet line), insulin promoter-eGFP reporter, imaging; reporter expression induced with tamoxifen; inhibition, % at 2 µM; 130,000 compounds, 0.9% hits; AID 1273;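 active means inhibition above the mean plus 3 SD, with well images judged a real hit on visual review, cut at about 60% in these data, passing the limit was not always enough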
INS promoter inh cell count = further read-out of INS promoter inh, marked with its call; normalized cell count, %; measured here: cell count, toxicity; reference of the scale not given here;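 cells exposed to compound for 48 h; stained nuclei by imaging scaled within each plate; lower means fewer cells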
HSV augment primary fold = recorded beside HSV augment, whose call it bears; fold increase; compound at 10 µM; measured here: primary screen fold increase 10 uM; tested in PC3 cells;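 GFP signal in the first replicate; 1 = infected wells without compound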
* hit, by the source's call; i = inactive; / = no result given. Outcome played no part in choosing rows. Share with any hit: about 1.3%.

SMILES	RGS16-Gao	PKD1 kinase inh	GALR2 agonist	HSV augment	HSV augment primary fold	INS promoter inh	INS promoter inh cell count
COc1ccccc1CN(C(=O)c1ccco1)C(C(=O)NC1CCCC1)c1ccncc1 (configuration not stated)	101	8	-2.2	i	0.97	/	/
O=C(Nc1nc(-c2cccc([N+](=O)[O-])c2)cs1)C(c1ccccc1)c1ccccc1	101	-9	-1.7	i	0.85	26	88
COc1ccc(OC)c(NC(=O)Nc2cc(NC(=O)Nc3cc(OC)ccc3OC)c(C)nc2C)c1	66	-1	-0.8	i	0.89	50	95
NS(=O)(=O)c1ccc(C(=O)O)cc1	89	-5	-1.7	i	0.87	-32	93
O=C1c2ccccc2C(=O)N1Cc1cccnc1	116	-1	/	i	1	/	/
COc1cc(C(=O)N2CCC(c3nc(-c4cccnc4)no3)CC2)cc(OC)c1OC	112	-4	0.4	i	0.8	-3	155
CO/N=C/C(NC(=O)c1ccc(C(F)(F)F)cc1)C(=O)OC (configuration not stated)	99	-4	/	i	0.95	/	/
CCn1ncc(Br)c1C(=O)Nc1cc(C)ccc1F	109	-5	-0.6	i	0.9	/	/
CC(C)CCNC(=O)[C@H](CSCc1ccccc1)N1Cc2ccccc2C1=O	111	-6	-0.6	i	0.78	10	98
Cc1nc2ccc(S(=O)(=O)NCC(=O)NCc3ccc4c(c3)OCO4)cc2s1	103	-4	-1.6	i	0.94	-27	91
COc1cc(C2/C(=C(/O)c3ccccc3)C(=O)C(=O)N2c2ccccn2)ccc1O (configuration not stated)	99	0	/	i	1	/	/
CC(=O)Oc1cccc(N2C(=O)C3C4C=CC(C4)C3C2=O)c1 (configuration not stated)	99	5	-0.3	i	0.69	/	/
O=C1c2ccccc2C(=O)c2c1cccc2-n1nnc2ccccc21	105	/	/	i	0.91	/	/
O=C(Cc1c[nH]c2ccccc12)NNC(=O)c1ccccc1	74	12	0.6	i	1	/	/
Cc1c(C#N)c2ccccc2n1C	102	/	/	i	0.64	/	/
Cc1ccc(-c2c3c(=O)n(C)c(=O)n(C)c3cn2Cc2ccccc2)cc1	100	-9	71*	i	0.88	42	89
Cc1ccc(C(=O)N(c2ccccn2)C(C)c2ccco2)cc1 (configuration not stated)	120	-5	0.1	i	1.1	/	/
O=C(Cc1ccccc1)N1CCN=C1SCc1cccc([N+](=O)[O-])c1	99	5	/	i	0.84	/	/
CCOc1ccc(N(C(=O)CNC(=O)c2ccco2)C(C(=O)NC2CCCC2)c2ccncc2)cc1 (configuration not stated)	102	-6	/	i	1.1	/	/
CC(C)N1CC23C=CC(O2)C(C(=O)OCc2ccccc2)C3C1=O (configuration not stated)	105	-11	-0.7	i	0.98	/	/
Fc1ccc(-n2c(-c3ccc4c(c3)OCO4)n[nH]c2=S)cc1Cl	104	6	-2.0	i	0.98	/	/
Cc1cccc(NC(=O)NNC(=O)c2nn(C)cc2Br)c1	114	5	-2.0	i	0.94	-6	95
Oc1ccc(C(c2nnnn2C2CCCCC2)N2CCOCC2)cc1 (configuration not stated)	103	7	/	i	0.95	/	/
c1ccc(-c2nc(N3CCNCC3)nc3ccccc23)cc1	151	-8	7.8	i	0.94	-66	107
COCCCN(C(=S)NC(=O)C12CC3CC(CC(C3)C1)C2)c1c(N)n(Cc2ccccc2)c(=O)[nH]c1=O	104	7	/	i	0.89	/	/
Cc1ccccc1NC(=O)COc1ccc2c(c1)OC(C)(C)CC2=O	107	/	/	i	1.1	/	/
O=C(CSc1n[nH]c(-c2ccccc2)n1)c1ccc(O)c(O)c1	121	8	-0.9	i	0.77	/	/
CS(=O)(=O)N1CC2CCCN2c2ccc(C(F)(F)F)cc21 (configuration not stated)	99	5	/	i	1.1	/	/
O=C(COC(=O)C1CCCCC1)Nc1ccc(N2CCCCC2)cc1	98	1	-2.2	i	1	/	/
COc1cc(SC)ccc1C(=O)OC1CCOC1=O (configuration not stated)	88	-3	-2.0	i	0.88	35	136

Laid out differently: eleven of the compounds above
compound,RGS16-Gao,PKD1 kinase inh,GALR2 agonist,HSV augment,HSV augment primary fold,INS promoter inh,INS promoter inh cell count
CC(C)N1CC23C=CC(O2)C(C(=O)OCc2ccccc2)C3C1=O (configuration not stated),105,-11,-0.7,i,0.98,/,/
Fc1ccc(-n2c(-c3ccc4c(c3)OCO4)n[nH]c2=S)cc1Cl,104,6,-2.0,i,0.98,/,/
Cc1cccc(NC(=O)NNC(=O)c2nn(C)cc2Br)c1,114,5,-2.0,i,0.94,-6,95
Oc1ccc(C(c2nnnn2C2CCCCC2)N2CCOCC2)cc1 (configuration not stated),103,7,/,i,0.95,/,/
c1ccc(-c2nc(N3CCNCC3)nc3ccccc23)cc1,151,-8,7.8,i,0.94,-66,107
COCCCN(C(=S)NC(=O)C12CC3CC(CC(C3)C1)C2)c1c(N)n(Cc2ccccc2)c(=O)[nH]c1=O,104,7,/,i,0.89,/,/
Cc1ccccc1NC(=O)COc1ccc2c(c1)OC(C)(C)CC2=O,107,/,/,i,1.1,/,/
O=C(CSc1n[nH]c(-c2ccccc2)n1)c1ccc(O)c(O)c1,121,8,-0.9,i,0.77,/,/
CS(=O)(=O)N1CC2CCCN2c2ccc(C(F)(F)F)cc21 (configuration not stated),99,5,/,i,1.1,/,/
O=C(COC(=O)C1CCCCC1)Nc1ccc(N2CCCCC2)cc1,98,1,-2.2,i,1,/,/
COc1cc(SC)ccc1C(=O)OC1CCOC1=O (configuration not stated),88,-3,-2.0,i,0.88,35,136

(more compounds)
SMILES	RGS16-Gao	PKD1 kinase inh	GALR2 agonist	HSV augment	HSV augment primary fold	INS promoter inh	INS promoter inh cell count
O=C(NCC1CCCO1)c1cc(C(=O)C2CC2)c[nH]1 (configuration not stated)	94	-2	5.3	i	0.98	-28	33
O=C(NCCOC(=O)c1ccc(Cl)cc1)c1cccnc1	160	2	-0.5	i	0.9	-33	136
CN(c1ccccc1)c1ccc(/C=N/NC(=O)CC#N)cc1	95	-13	-2.1	i	1.2	4	118
Cc1ccc(S(=O)(=O)NCCNC(=O)C2CCCNC2=O)cc1 (configuration not stated)	99	-2	0.2	i	1.1	8	141
COc1ccc2c(c1)CCc1cc(C(=O)N3CCN(c4ccc(N5CCOCC5)nn4)CC3)sc1-2	99	-8	0.2	/	/	/	/
Cc1ccc(-c2nc(-c3ccc(Cl)cc3)sc2CC(=O)O)c(C)c1	102	1	/	i	0.97	/	/
Cc1ccccc1/C(N)=N/OC(=O)c1ccc(F)cc1	94	2	/	i	0.92	/	/
C/C(=N\NC(=S)NCc1ccccc1)c1ccccc1F	100	-2	/	i	0.85	/	/
O=C(COc1ncnc2ccccc12)c1ccc(Cl)cc1	101	-1	/	i	1	/	/
CC(=O)Nc1c(O)nc(SCC(=O)Nc2sc3c(c2C#N)CCCCCC3)[nH]c1=O	68	2	-1.7	i	1.1	/	/
COc1ccc(CCNC(=O)C/C(C)=N/NC(=O)C2CCCCC2)cc1OC	109	-10	-1.0	i	0.97	/	/
CS(=O)(=O)N(CC(=O)NCCSC1CCCCC1)c1ccc2c(c1)OCO2	99	-4	-2.6	i	1	62	127
Cc1ccc(S(=O)(=O)N2CCC(C(=O)N3CCC[C@H]3C(=O)NCc3ccccc3)CC2)cc1	114	-2	-0.6	i	0.99	-34	150
O=C(NCN1C(=O)C2C3C=CC(C3)C2C1=O)OC1CCCCC1 (configuration not stated)	115	6	-2.1	i	0.96	/	/
O=C(Nc1ccccc1)c1ncoc1-c1ccc(Cl)cc1	106	/	/	i	0.97	/	/
O=[N+]([O-])c1cccc2ncccc12	105	/	/	i	0.99	/	/
OCCC1CN(Cc2cnc(-c3ccc(Cl)cc3)nc2)CCN1C1CCCC1 (configuration not stated)	104	/	/	i	0.99	/	/
COc1ccc2cc(C3C(C#N)=C(N)OC(C)=C3C(C)=O)c(Cl)nc2c1 (configuration not stated)	100	-1	/	i	0.99	/	/
CCN(CC)S(=O)(=O)c1ccc(C(=O)Oc2coc(CSc3nc(C)cc(C)n3)cc2=O)cc1	80	4	0.0	i	1.1	25	145
CCOC(=O)N1CCN(CCC(=O)Nc2ccc(OC)cc2OC)CC1	106	-8	-0.8	i	0.71	0	88
Cc1ccn2cc(CCNS(=O)(=O)c3ccc4c(c3)CCCC4)nc2c1	/	-10	-1.0	i	0.84	-52	79
O=C(Nc1ccccc1)c1cccc(N2C(=O)CCC2=O)c1	77	-6	-1.9	i	1	44	144
Cc1ccc(-c2c(C(=O)NCc3ccccc3)oc(=O)c3ccccc23)cc1	106	-5	-0.9	i	1	-7	65
CC(=O)NNc1ncnc2c1cnn2-c1ccc(C)cc1	104	-2	/	i	0.91	8	172
CCOC(=O)CN(C(=O)CN1CCC(n2nnc3cc(C)ccc32)CC1)c1ccccc1	101	-9	-0.1	i	0.66	-10	162
C=C(C)CN(CC)C(=O)CC1C(=O)NCCN1CC(C)(C)C (configuration not stated)	103	/	/	i	1	/	/
CCOc1ncccc1C(=O)N(C)CC(=O)Nc1ccc(C)cc1	117	-6	-1.5	i	0.95	12	195
O=C1c2cccnc2-c2ncccc21	105	10	0.1	i	0.93	9	71
CC(C(=O)Nc1ccc2c(c1)OCO2)c1ccc([N+](=O)[O-])cc1 (configuration not stated)	102	-3	/	i	1	-12	92
Cc1nc(S/C(=C/c2ccc(-c3cc(Cl)ccc3C)o2)C(=O)O)n[nH]1	104	/	/	i	1.1	/	/
CC(C)CCn1nnnc1C(C(C)C)N1CCC(C(N)=O)CC1 (configuration not stated)	104	2	-2.1	i	0.98	-452	45
Cc1cccc(NC(=O)Nc2ccc3c(c2)OCO3)n1	101	5	/	i	1.2	/	/
COc1ccc2c(c1)-c1nc(N)sc1CC2	105	-4	/	i	0.87	/	/
Cc1cccc(NC(=S)N2CCC(C(=O)c3ccc(F)cc3)CC2)c1C	158	17	-2.5	i	1.1	16	161
Fc1ccc(CSc2nnc3ccc(-c4ccncc4)nn23)cc1	100	-6	/	i	0.87	/	/
Cc1ccc(S(=O)(=O)n2nc(OC(=O)c3ccco3)cc2N)cc1	105	0	-1.2	i	0.94	/	/
O=C1CC(N2CCOCC2)C(=O)N1CCN1C(=O)CC(N2CCOCC2)C1=O (configuration not stated)	102	8	-0.3	i	0.85	-9	127
COc1ccc(OCC(=O)Nc2ccccc2OC)cc1	422	-4	-1.1	i	1	/	/
CCCCn1c(=O)c(CCC(=O)OCC(=O)Nc2cc(Cl)ccc2OC)nc2ccccc21	32	-9	-0.5	i	0.99	7	117
CC(=O)OCCN1C(=O)c2cccnc2C1=O	96	-3	-2.1	i	0.92	8	90
CCOC(=O)N/N=C\c1ccc(C)s1	104	-5	0.2	i	0.9	14	140
CC(C)C(NS(=O)(=O)c1ccc2c(c1)oc(=O)n2C)C(=O)N1CCN(C2CCCCC2)CC1 (configuration not stated)	105	3	-1.3	i	1.1	/	/
COC(=O)NCN1C(=O)C2C3C=CC(C3)C2C1=O (configuration not stated)	105	-2	/	i	1.1	/	/
CN1CCN(NC(=O)C23CC4CC(CC(C4)C2)C3)CC1	102	-9	-0.4	i	1.1	-6	148
CN(C(=O)c1ccc(=O)[nH]c1)C1(C(=O)NC2CCCCC2)CCCCC1	97	-2	-1.7	i	0.82	-57	135
COc1cccc(NC(=S)N/N=C2/CCCCc3ccccc32)c1	97	-3	-1.2	i	0.94	/	/
CCCCn1c(-c2csc3c2CCC(C)C3)n[nH]c1=S (configuration not stated)	101	0	0.0	i	0.93	-20	31
CN(C(=O)CSCC(=O)O)C1CCCCC1	100	9	-1.7	i	0.97	-32	100
NC(=O)c1sc2nc(-c3ccco3)ccc2c1N	93	-2	0.1	i	0.86	-42	57
COc1cc(/C=C/C(=O)NC(C)C)ccc1OCc1ccccc1	98	4	7.5*	i	0.87	6	154
O=C(CCN1CCN(c2ccccc2)CC1)Nc1cccc(Br)c1	103	0	/	i	0.94	/	/
O=C(CCc1ccccc1)Nc1nnc(-c2ccc3c(c2)CCCC3)o1	104	8	-1.7	i	1.1	/	/
CCOn1c(=O)c(-c2ccc(OC)cc2)[n+]([O-])c2ccccc21	98	-1	-1.9	i	0.86	/	/
COc1cccc(Nc2nc(NCCO)c3ccccc3n2)c1	100	8	-3.4	i	0.74	54	82
CCN1C(C(=O)c2ccccc2)=C(Nc2ccccc2C)c2ccccc2S1(=O)=O	101	13	-1.6	i	1	-21	109
CSc1ncccc1C(=O)Nc1nc2c(C)cccc2s1	109	-12	-1.7	i	0.89	-56	140
O=C(Nc1ncnc2sc3c(c12)CCCCC3)c1ccccc1	105	23	-0.7	i	0.78	-3	169
Cc1cccc(C(=O)Nc2ccccc2SCC(=O)Nc2ccc(C)c(Cl)c2)c1	101	-2	-0.9	i	0.73	3	139
CCOc1ccc(NC(=S)c2ccncc2)cc1	105	-16	-0.1	i	1	/	/
